Screening results as filed in PubChem BioAssay.
MgrA-DNA mod: modulators of Staphylococcus aureus MgrA DNA binding; fluorescence polarization; inhibition, %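 (about 10 µg/mL by stock and volumes)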; hit rate 0.13% among 84,000; AID 602314;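 active means above 50% in either of two replicates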;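 further: 0% = protein plus DNA without compound and 100% = DNA alone without protein; higher means less MgrA bound to DNA so lower polarization; one replicate is shown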
Sa helicase inh: blocks Staphylococcus aureus DNA helicase | inhibition, %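 (tested at about 80 µM)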 | hit rate 0.05% among 120,000 | purified S. aureus helicase, fluorescence unwinding assay; about half of the hits fall short of the stated cut;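 active means both duplicates at 50% or more, or one of them with a favoured structure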;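 further: 0% = mean of negative control wells and 100% = mean of positive control wells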
* hit, by the source's call. An excerpt; the hit share may differ from the screen's.

Screening CCCOC(=O)c1cc(-c2ccc(/C=C3\C(=O)N(c4cccc(C(=O)O)c4)N=C3C)o2)ccc1Cl returned MgrA-DNA mod 6.3.
For Cn1c(=O)c2c(-c3ccc(Br)cc3)n(Cc3ccco3)cc2n(C)c1=O the results were Sa helicase inh 0.
COC(=O)CCC(=O)Nc1nccs1 was read as MgrA-DNA mod -0.8 and Sa helicase inh 7.
Screening CCCCn1c(-c2nn(C)cc2Cl)n[nH]c1=S returned Sa helicase inh 33.
Cc1oc(C(C)(C)C)cc1-c1cc(NC(=O)c2ccccc2)n(C)n1 was read as MgrA-DNA mod -3.1.
For O=C(NCCS(=O)(=O)NC1CCCCC1)c1ccccc1 the results were Sa helicase inh 11.
`CC1CCN(S(=O)(=O)c2ccc3c(c2)c(=O)c(C(=O)N(C)Cc2ccccc2)cn3C)CC1` gave MgrA-DNA mod 0.5 and Sa helicase inh 2.
Screening CSc1ccc(NC(=O)NCc2ccccc2)cc1 returned Sa helicase inh -25.
For CS(=O)(=O)Nc1cc(NS(C)(=O)=O)cc(C(=O)O)c1 the results were MgrA-DNA mod -2.0 and Sa helicase inh 1.
Screening NC(=O)COC(=O)c1ccccc1Nc1ccccc1 returned Sa helicase inh -10.

Continued, overlapping the part above by 2 compounds.
For CS(=O)(=O)Nc1cc(NS(C)(=O)=O)cc(C(=O)O)c1 the results were MgrA-DNA mod -2.0 and Sa helicase inh 1.
Screening NC(=O)COC(=O)c1ccccc1Nc1ccccc1 returned Sa helicase inh -10.
For COc1cc(/C=C2/NC(=S)NC2=O)cc(Br)c1OC(=O)C12CC3CC(CC(C3)C1)C2 the results were MgrA-DNA mod -0.2.
Screening COc1ccccc1C(=O)NCc1ccc2c(c1)cc(C)n2C returned Sa helicase inh 17.
COC(=O)Cc1nc(NS(=O)(=O)c2cccc(C(F)(F)F)c2)sc1C was read as MgrA-DNA mod -1.3.
For Cc1sc2nc(SCC(=O)NCCCn3ccnc3)[nH]c(=O)c2c1C the results were MgrA-DNA mod -0.7.
For O=C(O)c1cccc(N(CCO)CCO)c1 the results were MgrA-DNA mod -2.9 and Sa helicase inh -5.
`Cc1ccc(C)c(NC(=O)C2CCCN(C(=O)c3cnn(-c4ccccc4)c3-n3cccc3)C2)c1` (stereo unspecified) gave MgrA-DNA mod 0.0 and Sa helicase inh 5.
CCN(CC)c1ccc2cc(C(N)=O)/c(=N\NC(=O)c3ccccc3)oc2c1 was read as Sa helicase inh -120.
For Cc1cc(-n2c(C)cc(C(=O)CSc3ccc(F)c(F)c3)c2C)no1 the results were Sa helicase inh -4.
`NC1=NC(=O)/C(=C\c2ccc3c(c2)OCO3)S1` gave Sa helicase inh -10.
For Cc1ccc2oc(=O)c3cnn(CC(=O)Nc4ccccc4C)c3c2c1 the results were Sa helicase inh 5.
For COC(=O)C1=C(CN2CCOCC2)NC(=O)NC1c1cccc(OC)c1 (stereo unspecified) the results were MgrA-DNA mod 3.8 and Sa helicase inh 13.
For O=C(c1cnc(N2CCOCC2)nc1)N1CCN(c2ccc(F)cc2)CC1 the results were Sa helicase inh 4.
Screening CC(NC(=O)c1ccc[nH]c1=O)c1ccc(Cl)cc1Cl (stereo unspecified) returned Sa helicase inh -7.
For CN(C)C(=O)N1CCC(C(=O)NCCC2=CCCCC2)CC1 the results were MgrA-DNA mod 1.8 and Sa helicase inh 4.
`CCC(CC)C(=O)Nc1c(-c2ccccc2)nc2cc(C)ccn12` gave MgrA-DNA mod -0.2 and Sa helicase inh 10.
Screening Clc1ccccc1OCc1nnc(-c2ccccc2Cl)o1 returned MgrA-DNA mod -1.5.
c1ccc(-c2cc(-c3ccco3)c(-c3ccccc3)nn2)cc1 was read as Sa helicase inh 14.
For Cc1ccc(C2C(=O)c3ccccc3C2=O)cc1 the results were MgrA-DNA mod -1.2.
For COC(=O)c1sc2nc(-c3ccco3)cc(C(F)(F)F)c2c1N the results were Sa helicase inh -36.
For c1ccc(CCNc2nc(-c3ccccc3)no2)cc1 the results were Sa helicase inh 11.

Reprinted at random: 2 entries already listed
For Cc1cc(-n2c(C)cc(C(=O)CSc3ccc(F)c(F)c3)c2C)no1 the results were Sa helicase inh -4.
Screening Clc1ccccc1OCc1nnc(-c2ccccc2Cl)o1 returned MgrA-DNA mod -1.5.

In the list so far, these have a COOH group.
Screening CCCOC(=O)c1cc(-c2ccc(/C=C3\C(=O)N(c4cccc(C(=O)O)c4)N=C3C)o2)ccc1Cl returned MgrA-DNA mod 6.3.
For CS(=O)(=O)Nc1cc(NS(C)(=O)=O)cc(C(=O)O)c1 the results were MgrA-DNA mod -2.0 and Sa helicase inh 1.
For O=C(O)c1cccc(N(CCO)CCO)c1 the results were MgrA-DNA mod -2.9 and Sa helicase inh -5.

(list continues)
For CCOC(=O)c1cnn(C(=O)c2cccc3ccccc23)c1N the results were MgrA-DNA mod -1.7.
`COC(=O)Cn1cnc2sc(C)c(S(=O)(=O)N3CC(C)CC(C)C3)c2c1=O` (stereo unspecified) gave MgrA-DNA mod -0.2 and Sa helicase inh -6.
Screening O=S(=O)(c1ccc(-c2cc(C(F)(F)F)on2)s1)N1CCC(C(c2ccccc2)c2ccccc2)CC1 returned MgrA-DNA mod 3.3.
FC(F)(F)c1cccc(Nc2nnnn2C2CCCC2)c1 was read as Sa helicase inh -2.
`O=S(=O)(c1ccccc1)c1nc(Cc2ccccc2)oc1N1CCOCC1` gave MgrA-DNA mod 4.5 and Sa helicase inh -9.
O=C(NCc1ccco1)c1c[nH]n2c(=O)cc(C3CCNCC3)nc12 was read as Sa helicase inh 17.
For O=C1NC(=S)N/C1=C\c1ccco1 the results were MgrA-DNA mod 18 and Sa helicase inh 9.
Screening CC(C)(C)C(=O)COC(=O)C1CCN(S(=O)(=O)c2cccs2)CC1 returned Sa helicase inh -6.
Screening O=C(CCn1c(=O)c2ccccc2n(CC(=O)NCCC2=CCCCC2)c1=O)NCc1ccc2c(c1)OCO2 returned Sa helicase inh -18.
For O=C(c1cnn(-c2ccccc2)c1)c1ccccc1O the results were MgrA-DNA mod -3.5 and Sa helicase inh 0.

3 structures already listed, arranged by heavy-atom count, low to high.
For O=C(c1cnn(-c2ccccc2)c1)c1ccccc1O the results were MgrA-DNA mod -3.5 and Sa helicase inh 0.
FC(F)(F)c1cccc(Nc2nnnn2C2CCCC2)c1 was read as Sa helicase inh -2.
Screening O=S(=O)(c1ccc(-c2cc(C(F)(F)F)on2)s1)N1CCC(C(c2ccccc2)c2ccccc2)CC1 returned MgrA-DNA mod 3.3.

(list continues)
`CCOc1cc2c(cc1C(=O)O)OC(C)C2` (stereo unspecified) gave Sa helicase inh 18.
`CC1(C)CC(=O)C2=C(C1)NC(=O)C(C#N)C2c1ccccc1` (stereo unspecified) gave MgrA-DNA mod 2.5 and Sa helicase inh 2.
`COc1ccc(Cc2c(O)nc(SC)n(-c3ccccc3)c2=O)cc1` gave Sa helicase inh -10.
Screening CCc1nn(CC(=O)N2CC(C)CC(C)C2)c(=O)c2cc3sccc3n12 (stereo unspecified) returned Sa helicase inh 11.
CC(C)COc1ccc(/C=C2/SC(=Nc3ccccc3)N(N(C)C)C2=O)cc1 was read as MgrA-DNA mod 0.1 and Sa helicase inh -8.
CCOC(=O)/C(N=Nc1cccc([N+](=O)[O-])c1)=C(\C)O was read as MgrA-DNA mod 0.8.
For NC(N)=NN=C1CCCCC1 the results were Sa helicase inh 26.
For COc1cc(CCNc2ccc3nnc(-c4ccccc4)n3n2)cc(OC)c1OC the results were MgrA-DNA mod 1.7 and Sa helicase inh 14.
Screening COC(=O)c1ccc(S(=O)(=O)N2CCc3ccccc32)n1C returned MgrA-DNA mod -2.2 and Sa helicase inh 1.
For O=C(COc1ccc2c(c1)C(=O)CC1(CCCCC1)O2)NCc1cccnc1 the results were MgrA-DNA mod -0.5 and Sa helicase inh 6.
O=c1[nH]nc2n1CCCC2 was read as Sa helicase inh -24.
For CC1CCCN(C(=O)C23CCC(C)(C(=O)C2)C3(C)C)C1 (stereo unspecified) the results were MgrA-DNA mod -2.8 and Sa helicase inh -1.
For COC(=O)c1cc2c(cc1Cl)N1CCCCCC1=NS2(=O)=O the results were Sa helicase inh -12.
Screening CCc1ccc2[nH]c(=O)c(C(c3nnnn3C3CCCC3)N(Cc3ccccc3)Cc3ccco3)cc2c1 (stereo unspecified) returned MgrA-DNA mod 1.9 and Sa helicase inh 5.
For CCC(CC)C(=O)Nc1c2c(nn1-c1ccc(Cl)cc1)CSC2 the results were Sa helicase inh 21.
Screening c1ccc(CNC2=NCCCS2)cc1 returned Sa helicase inh 12.
Screening CCCCCn1nc(C(=O)O)c2ccccc2c1=O returned Sa helicase inh -3.
For COc1ccc(Cn2c(C)ccc2C)cc1 the results were MgrA-DNA mod 1.4 and Sa helicase inh 0.
`CC1CCN(CC(O)c2ccc3cc[nH]c3c2)CC1` (stereo unspecified) gave Sa helicase inh 6.
CC(=O)Nc1ccc(NC(=O)CN(CCc2ccccc2)S(C)(=O)=O)cc1 was read as MgrA-DNA mod -7.6 and Sa helicase inh 12.
Screening Clc1ccc(CSc2ccccc2-n2cccc2)cc1 returned MgrA-DNA mod -0.4.
CCOC(=O)C(c1ccccc1)N1CCN(c2ccccc2F)CC1 (stereo unspecified) was read as Sa helicase inh 6.
`CC(=O)N1C(c2ccccc2)SC(C)(C)C1C(=O)O` (stereo unspecified) gave MgrA-DNA mod -4.1.
`CCN(c1ccccc1)C1SC(=O)NC1=O` (stereo unspecified) gave Sa helicase inh 4.
For c1ccc2c(c1)oc1c(NCc3ccc4c(c3)OCO4)ncnc12 the results were Sa helicase inh 10.
`Cn1nnnc1SCC(=O)NCc1cccc(C(=O)O)c1` gave MgrA-DNA mod 0.8 and Sa helicase inh 6.
For COc1ccc(/C(O)=C(\C#N)c2nc3ccccc3[nH]2)cc1 the results were MgrA-DNA mod 0.5 and Sa helicase inh 17.
Screening COc1ccccc1NC(=O)c1ccc(-n2cccn2)nc1 returned MgrA-DNA mod -2.1.
For Cc1ccc(C=Nc2cccc3ccccc23)cc1 the results were MgrA-DNA mod 1.5 and Sa helicase inh 6.
Screening CCOc1ccccc1C1SCC(=O)N1CCN1C(=O)S/C(=C\c2ccc(F)cc2)C1=O (stereo unspecified) returned Sa helicase inh -5.
`CCc1ccc(OCC(=O)OC2CCS(=O)(=O)C2)cc1` (stereo unspecified) gave Sa helicase inh -6.
Screening CC(=O)Nc1ccc(S(=O)(=O)C(F)F)cc1 returned Sa helicase inh -9.
Screening COc1ccc(CSc2nnc3c4c5c(sc4nc(SC)n23)COC(C)(C)C5)cc1 returned MgrA-DNA mod -0.6 and Sa helicase inh 9.
Screening c1coc(C2Nc3ccccc3-c3nc4ccccc4n32)c1 (stereo unspecified) returned MgrA-DNA mod -1.1 and Sa helicase inh 9.
Screening O=C1CCC(=O)N1CN(C(=O)C(F)(F)F)c1ccccc1 returned MgrA-DNA mod -1.1 and Sa helicase inh 10.
`CC(c1nnc(SCc2nnc(-c3ccco3)o2)n1-c1ccc(F)cc1)N1CCCCC1` (stereo unspecified) gave Sa helicase inh -1.
`Cc1cc(C)c(OCC(=O)O)c(Cl)c1` gave MgrA-DNA mod 0.9 and Sa helicase inh -3.
Screening CSc1nc2c(sc3ccccc32)c(=O)n1CCCC(=O)NCC1CCCO1 (stereo unspecified) returned Sa helicase inh 8.
For COc1cc(/C=c2/sc3nc4c(C)cc(C)cc4n3c2=O)cc(Br)c1O the results were MgrA-DNA mod 0.6.
For CCN(CC)C(=O)c1sc2nc(-c3ccncc3)[nH]c(=O)c2c1C the results were Sa helicase inh 17.
`CNC(=S)N1c2ccccc2CC1C` (stereo unspecified) gave Sa helicase inh -2.
`O=C(CSc1ncnc2sccc12)Nc1ccccc1` gave Sa helicase inh 4.
COc1cc(/C=C2/N=C(c3ccco3)OC2=O)ccc1OC(C)=O was read as Sa helicase inh 4.
For COC(CNC(=O)C1CCC(CNS(=O)(=O)c2ccc(C)cc2)CC1)OC (stereo unspecified) the results were Sa helicase inh 9.
Screening CC(C(=O)N1CCc2ccccc2C1)n1ncc2ccccc21 (stereo unspecified) returned Sa helicase inh 15.
Screening O=C(Oc1ccc(-c2csnn2)cc1)c1cccnc1 returned MgrA-DNA mod -0.4.
Screening O=C(Cn1ncc2c(Cl)cccc21)NCCCN1CCCC1 returned Sa helicase inh 9.
For Cn1nnc2sc(-c3ccccc3)cc2c1=O the results were Sa helicase inh -10.
For O=C(Cc1cccs1)Nc1scc(-c2ccccc2)c1C(=O)NCc1ccco1 the results were MgrA-DNA mod -1.5 and Sa helicase inh 6.
Screening O=C(NCc1ccco1)C1CCCN1S(=O)(=O)c1ccc(-c2ccc(=O)[nH]n2)s1 (stereo unspecified) returned Sa helicase inh 7.
`CC(Sc1nc2ncccc2o1)C(=O)N(C)c1ccc(F)cc1` (stereo unspecified) gave Sa helicase inh 7.
`CCCn1c(NC(=O)c2ccc(OCc3c(C)noc3C)cc2)nc2ccccc21` gave Sa helicase inh -4.
`CN(C)S(=O)(=O)c1cccc(COC(=O)C2=NN(c3ccccc3)C(=O)CC2)c1` gave Sa helicase inh 10.
O=C(OCc1ccco1)c1cc2cc(Br)ccc2oc1=O was read as Sa helicase inh -22.
`CC1CCC(NC(=O)N(CCCl)N=O)CC1` (stereo unspecified) gave MgrA-DNA mod 6.4.
`CCOC(=O)c1sc2sc(C#N)c(C)c2c1C` gave MgrA-DNA mod 1.0.
`CC(C)=NOC(=O)c1scc(S(C)(=O)=O)c1Cl` gave Sa helicase inh -5.
`OC(CN1CCCN(c2nc(-c3ccccc3)ns2)CC1)C(F)(F)F` (stereo unspecified) gave MgrA-DNA mod -0.7.
